Vaccinia inh: Vaccinia orthopox stage-specific inhibition. 89,000 tested, 0.01% active. Vaccinia-infected cells, mCherry/Venus stage reporter fluorescence; active compounds read low; some inactives read as strong as hits. activity change (mCherry), % (concentration not given with the values);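 active = mCherry past -33% and 40 or more points under the early reporter, replicates agreeing; inconclusive = past -33% without that gap or agreement; tested in A549 cells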;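 also: scaled between vehicle wells and reference inhibitor wells; 23 nL library stock went into each well; one replicate is shown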
Vaccinia inh Venus: also measured in Vaccinia inh; calls as there; activity change (Venus), %; measured here: Venus reporter, other viral stage;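 negative = less Venus signal; first of two replicates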
* hit, by the source's call; ? = inconclusive; nt = no result given. Some of the compounds tested; rates above refer to the full screens.

SMILES	Vaccinia inh	Vaccinia inh Venus
O=C(CCCCCCC(=O)Nc1ccc(CO)cc1)NOCc1ccccc1	19	7
COc1cccc(NC(=O)N2C[C@@H](O)COC[C@H]3O[C@@H](CC(=O)NCc4ccccc4F)CC[C@@H]32)c1	1	0
COc1ccc(S(=O)(=O)N(C)C[C@H]2Oc3ccc(NS(=O)(=O)c4ccc(Cl)cc4)cc3C(=O)N([C@@H](C)CO)C[C@@H]2C)cc1	28	21
COc1cccc(NC(=O)N[C@H]2C=C[C@@H](CC(=O)N3CCOCC3)O[C@@H]2CO)c1	14	24
CCN(C[C@H]1[C@H](c2ccccc2)[C@@H](CO)N1C(C)=O)C(=O)c1ccccn1	9	2
C[C@@H]1CN([C@@H](C)CO)C(=O)c2cc(NC(=O)Nc3ccc4c(c3)OCO4)ccc2O[C@@H]1CN(C)C(=O)Nc1cccc2ccccc12	25	25
CS(=O)(=O)N1[C@@H](C#N)[C@@H](c2ccc(C#Cc3cccc(F)c3)cc2)[C@@H]1CO	-31	-24
C[C@H]1CN([C@@H](C)CO)C(=O)Cc2cc(NC(=O)NC3CCCCC3)ccc2O[C@@H]1CN(C)S(=O)(=O)c1ccc(Cl)cc1	-2	-6
CN1C(=O)c2cc(NC(=O)C3CCOCC3)ccc2OC[C@H]2O[C@@H](CC(=O)NCCc3ccncc3)CC[C@H]21	8	2
COCC(=O)N1C[C@@H](C)[C@@H](OC)CN(C)C(=O)c2ccc(NC(=O)NC(C)C)cc2OC[C@@H]1C	1	1
C[C@@H]1CN([C@@H](C)CO)S(=O)(=O)c2ccc(C#CC3(O)CCCC3)cc2O[C@@H]1CN(C)C(=O)Cc1ccccc1	-13	-10
CCCNC(=O)N1CC[C@@H]2[C@@H](CO)N(C)c3ccc(-c4ccc(F)cc4)cc3[C@@H]21	?	nt
C[C@H]1CCCCO[C@H](CN(C)C(=O)Nc2ccc(F)cc2)[C@@H](C)CN([C@@H](C)CO)C(=O)c2cc(NC(=O)CCC(F)(F)F)ccc2O1	-32	-22
O=C(C[C@@H]1CC[C@@H](NC(=O)Nc2ccc3c(c2)OCO3)[C@@H](CO)O1)NCc1ccc(Cl)cc1	0	-9
Cc1noc(C)c1NC(=O)N(C)C[C@@H]1Oc2ncc(C#CC3CC3)cc2C(=O)N([C@@H](C)CO)C[C@H]1C	4	-1
COCC(=O)N[C@@H]1C[C@@H]2O[C@H](CO)CC[C@@H]2O[C@@H]1CCc1ccc(-c2ccccc2)cc1	-11	-15
COCCNC(=O)C[C@H]1C[C@@H]2c3cc(NC(=O)c4ccc5c(c4)OCO5)ccc3O[C@@H]2[C@H](CO)O1	10	6
C[C@H]1CN([C@@H](C)CO)C(=O)c2cccc(NC(=O)Nc3ccc(C(F)(F)F)cc3)c2O[C@H]1CN(C)S(=O)(=O)c1cccs1	?	nt
Cc1ccccc1-c1ccc([C@@H]2[C@@H](CO)N3C(=O)CN(S(C)(=O)=O)C[C@H]23)cc1	-4	-3
Cc1ccccc1-c1ccc([C@H]2[C@H](CO)N3C(=O)CN(C(=O)c4ccc(F)cc4)C[C@@H]23)cc1	7	0
C/C=C/c1cnc2c(c1)C(=O)N([C@@H](C)CO)C[C@H](C)[C@@H](CN(C)C(=O)c1cccnc1)O2	10	4
C[C@@H]1CN([C@H](C)CO)C(=O)CCCn2nncc2CO[C@H]1CN(C)Cc1cccc(C(F)(F)F)c1	1	6
C[C@@H](NC(=O)C[C@@H]1CC[C@H](NC(=O)c2cccnc2)[C@@H](CO)O1)c1ccccc1	-5	-2
O=C(CN1CCOCC1)N[C@@H]1CC[C@H](CCNC(=O)Nc2cc(F)ccc2F)O[C@@H]1CO	-8	-8
COc1ccc2c3c(n(C)c2c1)[C@H](CO)N(CC1CC1)CC31CN(C(=O)c2ccc3c(c2)OCO3)C1	-13	-8
COc1ccc(NC(=O)Nc2ccc3c(c2)CC(=O)N([C@H](C)CO)C[C@H](C)[C@@H](CN(C)Cc2ccc(C(=O)O)cc2)O3)cc1	33	13
CCC(=O)Nc1ccc2c(c1)OC[C@H](C)N(C(=O)CN1CCOCC1)C[C@H](C)[C@@H](OC)CN(C)C2=O	1	1
CCC(=O)NC[C@@H]1[C@H](c2ccc(C3=CCCC3)cc2)[C@H](CO)N1C(C)=O	7	-2
C[C@H]1CCCCO[C@@H](CN(C)C(=O)Nc2ccccc2)[C@@H](C)CN([C@@H](C)CO)C(=O)c2cc(NC(=O)Nc3ccccc3)ccc2O1	11	2
C[C@@H]1CN([C@H](C)CO)C(=O)CCCn2cc(nn2)CO[C@H]1CN(C)Cc1ccc(C(F)(F)F)cc1	4	-4
O=C(C1CC1)N1CC2(C1)[C@H](c1ccccc1)[C@H](CO)N2CCC(F)(F)F	17	16
Cc1ccc(S(=O)(=O)Nc2ccc3c(c2)CC(=O)N([C@@H](C)CO)C[C@@H](C)[C@@H](CN(C)C(=O)Nc2ccc(F)cc2)O3)cc1	11	6
C[C@@H]1CN([C@H](C)CO)C(=O)Cc2cc(NC(=O)Nc3ccc(C(F)(F)F)cc3)ccc2O[C@H]1CN(C)S(=O)(=O)c1cn(C)cn1	-13	-21
CC(C)NC(=O)N(C)C[C@H]1Oc2c(NC(=O)c3ccncc3)cccc2C(=O)N([C@H](C)CO)C[C@H]1C	9	1
CC(=O)Nc1ccc2c(c1)C(=O)N(C)[C@@H]1CC[C@H](CC(=O)Nc3cn(C)nc3C)O[C@H]1CO2	1	4
CO[C@@H](CN(C)C(=O)c1ccccc1F)[C@H](C)CN([C@@H](C)CO)S(=O)(=O)c1ccc(C)cc1	-1	-2
Cc1ccc(S(=O)(=O)N[C@@H]2CC[C@H](CC(=O)N3CCC(Cc4ccccc4)CC3)O[C@H]2CO)cc1	-30	-26
C[C@H]1CN([C@@H](C)CO)C(=O)c2cccc(N(C)C)c2O[C@H]1CN(C)C(=O)Nc1ccc2c(c1)OCO2	5	0
N#C[C@H]1[C@H](c2ccc(C#Cc3ccccc3F)cc2)[C@H](CO)N1C(=O)C1CC1	?	nt
C[C@@H]1CN([C@H](C)CO)C(=O)c2cc(-c3ccncc3)cnc2O[C@@H]1CN(C)C(=O)c1ccccc1F	14	5

Part of the list above, set out differently.
Second line of a record – Vaccinia inh, Vaccinia inh Venus
C/C=C/c1cnc2c(c1)C(=O)N([C@@H](C)CO)C[C@H](C)[C@@H](CN(C)C(=O)c1cccnc1)O2
    10, 4
C[C@@H]1CN([C@H](C)CO)C(=O)CCCn2nncc2CO[C@H]1CN(C)Cc1cccc(C(F)(F)F)c1
    1, 6
C[C@@H](NC(=O)C[C@@H]1CC[C@H](NC(=O)c2cccnc2)[C@@H](CO)O1)c1ccccc1
    -5, -2
O=C(CN1CCOCC1)N[C@@H]1CC[C@H](CCNC(=O)Nc2cc(F)ccc2F)O[C@@H]1CO
    -8, -8
COc1ccc2c3c(n(C)c2c1)[C@H](CO)N(CC1CC1)CC31CN(C(=O)c2ccc3c(c2)OCO3)C1
    -13, -8
COc1ccc(NC(=O)Nc2ccc3c(c2)CC(=O)N([C@H](C)CO)C[C@H](C)[C@@H](CN(C)Cc2ccc(C(=O)O)cc2)O3)cc1
    33, 13
CCC(=O)Nc1ccc2c(c1)OC[C@H](C)N(C(=O)CN1CCOCC1)C[C@H](C)[C@@H](OC)CN(C)C2=O
    1, 1
CCC(=O)NC[C@@H]1[C@H](c2ccc(C3=CCCC3)cc2)[C@H](CO)N1C(C)=O
    7, -2
C[C@H]1CCCCO[C@@H](CN(C)C(=O)Nc2ccccc2)[C@@H](C)CN([C@@H](C)CO)C(=O)c2cc(NC(=O)Nc3ccccc3)ccc2O1
    11, 2
C[C@@H]1CN([C@H](C)CO)C(=O)CCCn2cc(nn2)CO[C@H]1CN(C)Cc1ccc(C(F)(F)F)cc1
    4, -4
O=C(C1CC1)N1CC2(C1)[C@H](c1ccccc1)[C@H](CO)N2CCC(F)(F)F
    17, 16
Cc1ccc(S(=O)(=O)Nc2ccc3c(c2)CC(=O)N([C@@H](C)CO)C[C@@H](C)[C@@H](CN(C)C(=O)Nc2ccc(F)cc2)O3)cc1
    11, 6

Continuation.
SMILES	Vaccinia inh	Vaccinia inh Venus
O=C(C[C@H]1CC[C@H]2[C@@H](COC[C@@H](O)CN2Cc2ccccc2)O1)N[C@H]1CCN(Cc2ccccc2)C1	-23	-9
C[C@H](CO)N1C[C@H](C)[C@H](CN(C)C(=O)Nc2cccc3ccccc23)Oc2ncccc2C1=O	14	12
CN1C(=O)c2cc(NC(=O)NCc3ccccc3)ccc2OC[C@@H]2O[C@@H](CC(=O)O)CC[C@@H]21	10	22
C[C@H]1CN([C@@H](C)CO)C(=O)c2cc(NC(=O)Nc3ccc(F)cc3)ccc2O[C@H]1CN(C)C(=O)NC1CCCCC1	-6	-5
COc1ccc(-c2cnc3c(c2)C(=O)N([C@H](C)CO)C[C@H](C)[C@@H](CN(C)C(=O)Cc2ccccc2)O3)cc1	-3	-18
Cc1ccc(S(=O)(=O)Nc2cccc3c2O[C@@H](CN(C)C)[C@H](C)CN([C@H](C)CO)C3=O)cc1	-1	-2
C[C@H](CO)N1C[C@H](C)[C@H](CN(C)C(=O)NC2CCCC2)Oc2ncc(C3=CCCCC3)cc2C1=O	-20	-16
O=C(O)C[C@@H]1C=C[C@H](NC(=O)Nc2cc(F)ccc2F)[C@@H](CO)O1	13	15
COc1ccc2c3c(n(C)c2c1)[C@H](CO)N(C(=O)C1CCCC1)CC31CCN(C(=O)CC2CC2)CC1	-5	-2
C[C@@H]1CCCCO[C@H](CN(C)CC2CCCCC2)[C@H](C)CN([C@@H](C)CO)C(=O)c2cc(NC(=O)c3ccccc3)ccc2O1	?	nt
C[C@@H]1CN([C@H](C)CO)C(=O)c2cc(NC(=O)CCN3CCOCC3)ccc2O[C@@H]1CN(C)C	6	2
CCCNC(=O)c1cc2c(c(-c3cccc(-c4cccc(F)c4)c3)n1)[C@H](CCO)N([S@@](=O)C(C)(C)C)C2	-46*	-2.4*
CO[C@@H]1CN(C)C(=O)c2cc(NS(=O)(=O)CC(F)(F)F)ccc2OC[C@H](C)N(Cc2cccnc2)C[C@H]1C	10	5
C[C@@H]1CN([C@@H](C)CO)C(=O)c2c(c3ccccc3n2C)-c2ccccc2CO[C@H]1CN(C)Cc1ccc2c(c1)OCCN2C	?	nt
C[C@H]1CN([C@@H](C)CO)C(=O)c2cc(Br)cnc2O[C@@H]1CN(C)C(=O)c1ccccc1	15	14
O=C(c1ccccc1)N1CC2(C1)[C@H](c1ccccc1)[C@H](CO)N2Cc1cc(F)ccc1F	19	19
C[C@@H]1CN([C@@H](C)CO)C(=O)c2cc(C#CCc3ccccc3)cnc2O[C@H]1CN(C)CC1CCOCC1	-29	-14
C[C@@H]1CN([C@H](C)CO)C(=O)c2cc(NC(=O)CCC(F)(F)F)ccc2O[C@H]1CN(C)C(=O)Nc1ccc(F)cc1	2	1
CO[C@@H](CN(C)S(=O)(=O)c1ccccc1)[C@H](C)CN(C(=O)Nc1ccccc1F)[C@H](C)CO	9	11
O=C(O)C[C@@H]1CC[C@H](NC(=O)c2ccccc2F)[C@H](CO)O1	-2	-3
C[C@@H]1CN([C@@H](C)CO)C(=O)c2cccc(NS(=O)(=O)c3cccs3)c2O[C@@H]1CN(C)S(=O)(=O)c1cccs1	5	1
N#C[C@@H]1[C@@H](c2ccc(/C=C/c3ccccc3)cc2)[C@@H](CO)N1C(=O)C1CCC1	-12	-3
C[C@@H]1CN([C@@H](C)CO)C(=O)c2cccc(NS(=O)(=O)c3cn(C)cn3)c2O[C@H]1CN(C)CC1CC1	4	7
CC(C)NC(=O)N(C)C[C@@H]1Oc2ccc(NC(=O)Cn3cnnn3)cc2CC(=O)N([C@@H](C)CO)C[C@H]1C	13	7
O=C(C[C@H]1C=C[C@H](NC(=O)c2ccccn2)[C@@H](CO)O1)NCc1cccc(F)c1	-2	-1
O=S(=O)(c1cccs1)N1CCCCN2[C@H](CO)[C@H](c3ccc(C4=CCCCC4)cc3)[C@@H]2C1	-32	-22
O=C([C@@H]1[C@@H](CO)[C@@H]2Cn3c(ccc(-c4ccc(F)cc4)c3=O)[C@H]1N2)N1CCCCC1	10	6
Cc1ccc(S(=O)(=O)N(C)C[C@@H]2Oc3c(NC(=O)Nc4ccc(C(F)(F)F)cc4)cccc3C(=O)N([C@H](C)CO)C[C@H]2C)cc1	-28	-17
C[C@@H]1CN([C@H](C)CO)S(=O)(=O)c2ccc(C#C[C@@H](C)O)cc2O[C@@H]1CN(C)C	35	15
C[C@H](CO)N1C[C@H](C)[C@@H](CN(C)S(=O)(=O)c2ccc(Cl)cc2)OCCCC[C@H](C)Oc2ccc(NC(=O)C3CCCCC3)cc2C1=O	-18	-9
COCC(=O)Nc1ccc2c(c1)C(=O)N(C)C[C@H](OC)[C@@H](C)CN(C(=O)COC)[C@H](C)CO2	3	2
CC(C)NC[C@H]1[C@@H](c2ccc(C3=CCCCC3)cc2)[C@@H](CO)N1C(=O)NC(C)C	?	nt
C[C@@H]1CCCCO[C@@H](CN(C)C(=O)Nc2cccc3ccccc23)[C@H](C)CN([C@H](C)CO)C(=O)c2cc(NC(=O)CCCN(C)C)ccc2O1	14	12
COc1ccc(S(=O)(=O)N(C)C[C@@H]2Oc3ccc(NC(=O)CCCCCC(=O)Nc4ccccc4N)cc3C(=O)N([C@H](C)CO)C[C@H]2C)cc1	29	22
COc1ccc(NC(=O)N[C@@H]2CC[C@H](CCNS(=O)(=O)c3ccccc3F)O[C@H]2CO)cc1	-12	-15
CCC(=O)N[C@@H]1C=C[C@H](CC(=O)NCC2CCCCC2)O[C@H]1CO	7	9
COc1ccc(NC(=O)N(C)C[C@H]2Oc3ccc(NC(=O)Nc4cccc5ccccc45)cc3C(=O)N([C@@H](C)CO)C[C@H]2C)cc1	-2	2
C[C@H](CO)N1C[C@H](C)[C@H](CN(C)S(=O)(=O)c2ccccc2)Oc2ccc(NC(=O)C3CCCCC3)cc2C1=O	-1	0
Cc1ccc(S(=O)(=O)N[C@H]2CC[C@H](CCn3cc(C(C)C)nn3)O[C@H]2CO)cc1	-7	-5
C[C@H](CO)N1C[C@H](C)[C@@H](CN(C)C(=O)C2CCCCC2)Oc2ncc(/C=C/c3ccccc3)cc2C1=O	-25	-20

Source: PubChem
